Screening results: PubChem BioAssay, Southern Research Specialized Biocontainment Screening Center
Mtb bLac sens – beta-lactam sensitization of Mtb H37Rv; M. tuberculosis H37Rv growth with meropenem, percent inhibition; hits of this screen are not shown here; inhibition, % at 25 µM; 0.27% of 330,000 active;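 active = about 74% or more and at least 40 points above the plate without the antibiotic, then above 30% in a dose series; inconclusive = first-round hits that could not be retested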;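 also: growth measured after seven days incubation then overnight dye step; 0% = bacteria only wells and 100% = bacteria with antibiotic; twin plates without the antibiotic show which effects depend on it; some results filed as inactive read as strong as hits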
Active calls of the source: *; ? = inconclusive. Not all compounds are listed. The share of hits here may be higher or lower than overall.

molecule	Mtb bLac sens
CC(=O)O[C@H]1[C@@H](O)[C@H](O)[C@H](Oc2c(O)c(C)c3c4c2[C@@H](C)CC[C@@H]4[C@@H](C)C[C@H]3C=C(C)C)O[C@H]1C	27.9
Cn1c(N)c(C(=O)COC(=O)/C=C/c2cccc(C(F)(F)F)c2)c(=O)n(C)c1=O	-4.6
CCOc1ccc(NC(=O)C2=NN(c3ccccc3)C(=O)CC2)cc1S(=O)(=O)N1CCCCC1	9.9
COc1cccc([C@@H]2CC=C(C(=O)O)[C@H](c3ccccc3)N2S(=O)(=O)c2ccc(C)cc2)c1	5.8
O=C(COC(=O)/C=C/c1ccc(Br)o1)Nc1cccc(S(=O)(=O)N2CCOCC2)c1	1.7
CSc1ncccc1C(=O)Nc1ccc2c(c1)OCCO2	1.4
O=S(=O)(NCCCCNS(=O)(=O)c1ccc(F)cc1)c1ccc(F)cc1	-8.1
Cc1ccc(NC(=O)CSc2nc(N)cc(=O)[nH]2)cc1S(=O)(=O)N1CCCCCC1	-9.2
CCOC(=O)c1ccc(N2Cc3ccccc3C2=NC(=O)c2cccc([N+](=O)[O-])c2)cc1	93.7
COc1ccc(S(=O)(=O)NCCCc2ccccc2)cc1	5.2
Cn1cc(C(=O)OCC(=O)NC2CCCC2)c2ccccc21	0.9
COC(=O)[C@]1(Cc2ccccc2)N[C@H](CN(C)C(=O)NC(C)C)[C@@H]2C(=O)N(C)C(=O)[C@@H]21	4.0
Cc1ccsc1C(=O)OCC(=O)NCc1ccc(Cl)cc1	0.2
CS(=O)(=O)N1CCCC(C(=O)Nc2ccccc2)C1 (stereo not drawn)	-7.7
NNC(=O)c1cc(NS(=O)(=O)c2cccs2)cc(NS(=O)(=O)c2cccs2)c1	-6.4
CC1CCC2(CC1)NC(=O)N(CC(=O)Nc1ccc(C(N)=O)cc1)C2=O (stereo not drawn)	-9.1
CCCCNc1c(-c2cccc(Sc3ccc(OC)cc3)c2)nc2ccccn12	50.0
N#CCCN(C(=O)COC(=O)CCNS(=O)(=O)c1ccccc1)c1ccccc1	-6.5
O=c1ccc(S(=O)(=O)N2CCCC2)cn1Cc1nc(-c2ccccc2)no1	-3.8
CC1(c2ccc(Cl)cc2)NC(=O)N(CC(=O)N2CCc3ccccc32)C1=O (stereo not drawn)	2.5
Cc1noc(C)c1S(=O)(=O)N(C)C[C@H]1Oc2c(NC(=O)NC(C)C)cccc2C(=O)N([C@H](C)CO)C[C@@H]1C	9.4
O=C(CCNC(=O)c1ccc([N+](=O)[O-])cc1)Nc1cc(Cl)ccc1N1CCOCC1	-3.9
CCNC(=S)N1CCN(S(=O)(=O)c2ccc(Cl)s2)CC1	1.3
COc1ccc(-c2coc3cc(O[C@@H]4O[C@H](CO)[C@@H](O)[C@H](O)[C@H]4O)ccc3c2=O)cc1	-0.3
CCN(CC(=O)NCc1cccs1)C(=O)c1cc(=O)[nH]c2ccccc12	-4.5
O=C(NC(=S)NCc1ccc(Cl)cc1Cl)c1ccco1	5.8
COC(=O)C1=C(c2c(C)noc2C)C[C@@H]2CC[C@H]1N2C(=O)NCC1CC1	0.4
CC(C)CCN1CCC(C)(NC(=O)c2ccccc2)C1=O (stereo not drawn)	3.5
O=C(OCc1nnc(-c2ccc([N+](=O)[O-])cc2)o1)C1CC(=O)N(CCc2ccccc2)C1 (stereo not drawn)	-6.8
O=C(CN1C(=O)NC2(CCCC2)C1=O)Nc1cc(C(F)(F)F)ccc1N1CCOCC1	-6.4
CCCCn1c(N)c(N(CC)C(=O)C2=NN(c3ccccc3)C(=O)CC2)c(=O)[nH]c1=O	2.4
COc1ccccc1NS(=O)(=O)c1ccc(C(=O)N2CC(C)OC(C)C2)cc1 (stereo not drawn)	-3.9
CCN1C(=O)[C@H]2[C@@H](c3ccc(-c4cc(C(C)=O)cs4)cc3)N[C@@](Cc3ccccc3)(C(=O)OC)[C@H]2C1=O	1.8
NC(=O)c1ccc(NC(=O)COC(=O)CNC(=O)c2sc3ccccc3c2Cl)cc1	-2.4
Cc1ccc(NC(=S)N2CCC(NC(=O)c3ccco3)CC2)cc1C	6.8
COc1ccccc1NC(=S)NC(=O)CCc1ccccc1	?
NC(=O)C1CCCN(C(=O)c2ccc(S(=O)(=O)N3CCCCCC3)cc2)C1 (stereo not drawn)	-6.9
Nc1cc(C(Cl)=C(Cl)Cl)c(S(N)(=O)=O)cc1S(N)(=O)=O	-8.4
Cc1nc2ccc(C(=O)N/N=C/c3ccc(O)cc3)cc2[nH]1	1.4
CC(OC(=O)C1CCCC1)C(=O)Nc1ncc(Cl)cc1Cl (stereo not drawn)	-1.5
Cc1cc(OCC(=O)OCC(=O)NCc2ccc3c(c2)OCO3)ccc1Cl	-4.2
O=C(COC(=O)CCSc1ccccc1)Nc1ccccc1Br	-0.5
CCOC(=O)C1=C(COC(=O)CCc2ccccc2)NC(=O)NC1C (stereo not drawn)	-4.4
CC1c2cccn2CCN1S(=O)(=O)c1ccc(F)cc1 (stereo not drawn)	0.8
CCC1(c2ccc(F)cc2)NC(=O)N(CC(=O)Nc2cc(C)on2)C1=O (stereo not drawn)	1.8
O=C(COC(=O)CNC(=O)c1cccc(Br)c1)Nc1nnc(-c2ccccc2)o1	6.0
Cc1ccc(C(=O)N/N=C/c2ccc(-c3ccc(Br)cc3[N+](=O)[O-])o2)o1	0.7
O=C(COC(=O)C1CCCO1)Nc1nc(-c2ccc(F)cc2)cs1 (stereo not drawn)	1.7
CN(C)c1ccc(O)c2c1CC1CC3[C@@H](N(C)C)C(=O)C(C(N)=O)C(=O)[C@]3(O)C(=O)C1C2=O (stereo partly drawn)	99.5
COc1cc2c(cc1OC)C(c1ccccc1C(F)(F)F)CC(=O)N2 (stereo not drawn)	-12.8
Cc1ccc(C(=O)N[C@H](C(=O)NC2CCCCCCC2)C(C)C)cc1	-3.9
Cc1cc(C)cc(NC(=O)COC(=O)CCC2CCCC2)c1	2.0
COc1ccc(-c2cc(=O)oc3c(C)c(OC(C)C(=O)NCc4ccccn4)ccc23)cc1 (stereo not drawn)	-3.5
CCOCc1c(C(=O)NCc2ccccc2CN2CCCC2)oc2ccccc12	-4.6
Cc1noc(C)c1C(=O)OCC(=O)Nc1ccccc1SCC#N	8.1
COc1ccc(C(=O)NC2CCN(Cc3ccccc3)C2)cc1S(=O)(=O)N1CCOCC1 (stereo not drawn)	0.1
Cc1cc(Br)c(OCc2ccc(C(=O)N/N=C/c3ccc[nH]3)cc2)c(Br)c1	-3.7
CC(NC(=O)c1ccc(NC(=O)CC2SC(N3CCCC3)=NC2=O)cc1)c1ccc(F)cc1 (stereo not drawn)	-2.5
COC(=O)c1ccc(C)c(NC(=O)CSc2nc3[nH]c(=O)cc(O)c3s2)c1	-22.0
CC(C)c1ccc(CN2CCN(C(=O)CSc3nnnn3C3CC3)CC2)cc1	4.9

Next entries follow.
molecule	Mtb bLac sens
Cc1cc(Br)c(NC(=O)C(C)Sc2nnnn2C)c(Br)c1 (stereo not drawn)	55.1
COc1ccccc1NC(=O)c1ccc(NC(=O)COC(=O)c2cncc(Br)c2)cc1	-7.1
Cc1ccc(S(=O)(=O)NCC(=O)NCC(=O)NC(C)c2ccccc2Br)cc1C (stereo not drawn)	-1.5
COc1ccc(-c2c(-c3ccccc3OC)oc3ccccc23)cn1	8.5
COC(=O)c1ccccc1S(=O)(=O)N1CCC(C(=O)N2CCC2)CC1	1.9
CC(=O)Nc1ccc(NC(=O)COC(=O)C2CCCCC2)cc1	4.0
CC(=O)C[C@H](O)CC(=O)[C@H]1OC(=O)CCCCC/C=C/Cc2ccccc21	11.0
CC(C)(C)[C@H]1COC(=O)CCC/C=C/C[C@H](CC(=O)NCCO)C(=O)N1	3.0
COc1ccc(-c2oc(=O)c3cc(OC)c(OC)cc3c2C#C[C@]2(O)CC[C@H]3[C@@H]4CCc5cc(OC)ccc5[C@H]4CC[C@@]32C)cc1	2.0
COCCNC(=O)C(c1ccc(F)cc1)N(C(=O)CCC(=O)Nc1ccccn1)c1cccc(C)c1 (stereo not drawn)	4.4
O=C(NCC(c1cccs1)N1CCOCC1)c1cc2ccccc2oc1=O (stereo not drawn)	1.2
COc1ccccc1-c1sc2ccccc2c1-c1ccc(Br)nc1	10.6
COc1ccc(C(=O)NCCc2ccc(C(F)(F)F)cc2)cc1S(=O)(=O)N1CCOCC1	-9.6
O=S(=O)(NC1=NCCC1)c1cccc(NC(=S)Nc2ccc(OC(F)F)cc2)c1	-11.5
CC1CCCN(C(=O)COC(=O)Cc2c[nH]c3ccccc23)C1 (stereo not drawn)	2.4
CCOC(=O)[C@H]1[C@H]2COc3ccc(Cl)cc3[C@@H]2N2C(=O)c3cc(Br)ccc3NC(=O)[C@@]12C	99.1
O=C(CSc1cc(Cl)ccc1Cl)Nc1ccc(N2CCOCC2)cc1	7.8
COc1ccc(NC(=O)CN(C)CC(=O)Nc2ccc(C)c(S(=O)(=O)N3CCCCC3)c2)cc1	-4.5
Cc1ccc(N2CC(C(=O)NC3CC3)CC2=O)cc1 (stereo not drawn)	5.9
O=C(COC(=O)c1cccnc1Cl)NC(=O)c1ccc(OC(F)F)cc1	0.4
S=c1[nH]c2ccccc2n1CCOc1ccccc1	-0.4
COc1cc(Cl)c(C)cc1NC(=O)CSc1nnc(CN2CCCC2)o1	-2.5
COc1ccccc1CNC(=O)COC(=O)c1cccc(S(=O)(=O)N2CCCC2)c1	-5.8
Cc1nc2ccc(NS(=O)(=O)c3ccccc3Cl)cc2s1	-7.3
CCOC(=O)C1=CC[C@]2(C)c3c(c4ccccc4n3C)C(=O)C1N2C	-0.8
O=C(/C=C/c1ccc(S(=O)(=O)N2CCOCC2)cc1)NCCc1ccc(C(F)(F)F)cc1	-3.2
COc1ccc2c(COC(=O)CNS(=O)(=O)c3ccccc3)cc(=O)oc2c1	-5.5
CCOC(=O)[C@H]1[C@H]2COc3ccc(OC)cc3[C@@H]2N2C(=O)c3cc(C)ccc3NC(=O)[C@@]12C	6.0
CCCCOC(=O)c1ccccc1C(=O)OCc1ccccc1	8.5
CSc1nc2ccc(NC(=O)c3cccs3)cc2s1	56.8
O=C(Nc1ccc(N2CCCC2)cc1)c1cc(Cl)ccc1Cl	5.2
CN1C(=O)C(=O)N(CC(=O)Nc2ccccc2OC(F)F)C1=O	-1.3
O=C(NCC(=O)c1ccccc1)OCc1ccc([N+](=O)[O-])cc1	-2.9
O=C(NCc1ccc(F)c(F)c1)C1CCC(=O)N(CC2CCCCC2)C1 (stereo not drawn)	?
CC(C)NC(=O)Nc1ccc2c(c1)C(=O)N([C@H](C)CO)C[C@H](C)[C@@H](CN(C)C(=O)Nc1ccccc1)O2	8.1
CCCOc1ccc(S(=O)(=O)n2cc(F)c(=O)[nH]c2=O)cc1	1.6
CC(Sc1nnnn1C1CC1)C(=O)N1c2ccccc2NC(=O)C1(C)C (stereo not drawn)	-8.8
Cc1cccc(N2CCN(C(=O)NC3CCCCC3)CC2)c1C	-5.1
O=C(COc1ccc(F)cc1Br)NCC1(N2CCOCC2)CCCCC1	-3.8
COc1ccc2cc(C(=O)N(C)CC(=O)Nc3ccccc3Br)ccc2c1	3.1
O=C(CSc1nc2[nH]c(=O)[nH]c(=O)c2s1)Nc1cccc(F)c1	25.3
CN(C(=O)CN1CCCCCC1)c1c(N)n(Cc2ccccc2)c(=O)[nH]c1=O	0.1
CS(=O)(=O)c1ccc(NS(=O)(=O)c2ccc(Cl)c(C(=O)NCc3ccco3)c2)cc1	-2.3
CCCCCC(=O)Nc1cccc(S(=O)(=O)NC2=NCCC2)c1	-3.5
Cc1cc(C)c2c(=O)[nH]c(SCC(=O)Nc3cccc(S(=O)(=O)N(C)C)c3)nc2n1	1.6
CC1CCCCC1NC(=O)CCCN1C(=O)c2ccccc2C1=O (stereo not drawn)	-1.3
COCc1ccc(-c2c(-c3ccsc3)sc3ccccc23)cc1	20.7
Cc1ccc(S(=O)(=O)N2[C@@H](c3cccc(C)c3)C(C(=O)O)=C[C@H]2C(C)(C)C)cc1	-2.4
CN(CC(=O)Nc1ccccc1Br)C(=O)CNC(=O)c1cccs1	-0.1
CN(CC(=O)NCc1cccs1)CC(=O)Nc1ccc(F)c(F)c1F	-10.5
O=C(CNc1ccc(Br)cc1)Nc1cccc(S(=O)(=O)N2CCCC2)c1	-3.6

An excerpt from above in order of molecular weight, smallest number first.
molecule	Mtb bLac sens
Cn1cc(C(=O)OCC(=O)NC2CCCC2)c2ccccc21	0.9
CC(=O)Nc1ccc(NC(=O)COC(=O)C2CCCCC2)cc1	4.0
COC(=O)c1ccccc1S(=O)(=O)N1CCC(C(=O)N2CCC2)CC1	1.9
COc1ccccc1CNC(=O)COC(=O)c1cccc(S(=O)(=O)N2CCCC2)c1	-5.8

4 compounds picked at random from the list so far, as already listed:
molecule	Mtb bLac sens
COC(=O)c1ccc(C)c(NC(=O)CSc2nc3[nH]c(=O)cc(O)c3s2)c1	-22.0
CCOC(=O)[C@H]1[C@H]2COc3ccc(OC)cc3[C@@H]2N2C(=O)c3cc(C)ccc3NC(=O)[C@@]12C	6.0
COc1ccc(C(=O)NCCc2ccc(C(F)(F)F)cc2)cc1S(=O)(=O)N1CCOCC1	-9.6
CC(C)c1ccc(CN2CCN(C(=O)CSc3nnnn3C3CC3)CC2)cc1	4.9
